Screens as filed in PubChem BioAssay.
Rce1 inhib: blocks yeast Ras-converting enzyme; Q03530; yeast membranes, quenched prenylated peptide cleavage fluorescence; calls only; hit rate 0.27% among 290,000; AID 2563;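 active = fall in fluorescence gain of 50% or more versus controls, with final raw signal at or below 3038400; inconclusive = same 50% fall but final raw signal above 3038400; inactive = fall in fluorescence gain under 50%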;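 note: plate controls were neutral control wells for no effect and wells lacking membranes for full effect; tested at 10 µM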
Target sequence (Q03530 whole entry, looked up): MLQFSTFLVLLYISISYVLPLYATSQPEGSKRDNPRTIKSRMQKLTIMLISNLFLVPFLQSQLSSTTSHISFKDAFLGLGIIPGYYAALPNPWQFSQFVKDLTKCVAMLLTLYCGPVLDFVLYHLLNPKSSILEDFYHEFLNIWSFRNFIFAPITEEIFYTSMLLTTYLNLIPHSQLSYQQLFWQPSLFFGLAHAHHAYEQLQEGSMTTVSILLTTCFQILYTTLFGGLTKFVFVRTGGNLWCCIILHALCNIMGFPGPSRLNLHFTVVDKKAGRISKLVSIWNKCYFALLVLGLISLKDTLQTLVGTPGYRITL
eIF4H inh: inhibitors of RNA binding by human eIF4H; eIF4H fluorescence polarization binding assay; inhibition, % at 35 µM; hit rate 0.94% among 290,000;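 active = 50% or more with normal probe brightness, or confirmed in later tests; inconclusive = above 50% with abnormal brightness, or retests that disagree; inactive = below 50% or failed in later tests; about a fifth of its hits are not listed in these tables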;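 note: calls also rest on retests at 20 µM and on dose response follow-up; 0% = protein and probe with vehicle and 100% = probe without protein; strong numbers were not always called active; many hits fall short of the cut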
HIV Env fusion: HIV envelope-mediated fusion inhibition; inhibition, % at 12.3 µM; hit rate 1.1% among 360,000; HeLa-JRFL Env/CEM21 cell fusion, luciferase;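 active = mean replicate inhibition score of at least 50 and every replicate individually at or above 50; inconclusive = only one of the two criteria met; inactive = mean below 50 and not all replicates reaching 50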;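 note: 0% = plate neutral controls and 100% = maraviroc near 300 nM; one replicate is shown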
PABP polyA inh: blocks human PABP binding to poly(A) RNA | P11940 | fluorescence polarization | inhibition, % at 35 µM | hit rate 1% among 290,000 | AID 2014;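 active = 50% or more with normal probe brightness, or confirmed in later tests; inconclusive = above 50% with abnormal brightness, or retests that disagree; inactive = below 50% or failed in later tests; about a fifth of its hits are not listed in these tables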;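 note: calls also rest on retests at 20 µM and on dose response follow-up; controls were probe without protein and protein plus probe with vehicle; some compounds called inactive have numbers as strong as hits; many hits fall short of the cut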
CSC inhib: blocks cancer stem cells; cancer stem cell-like cells viability, luminescence; hit rate 1.1% among 300,000; inhibition, % at 7.5 µM;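 active = mean at 75% or more and at least half the replicates too; inconclusive = mean and replicates disagree; tested in HMLE shEcad cells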;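 note: 0% = median of negative and 100% = median of positive control wells; the first replicate is given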
MT1-MMP act inh: inhibitors of human MT1-MMP activation | P50281 | HT1080 RFP-PRO-GFP cells, GFP/RFP ratio fluorescence, overnight; percent of plate control window, DMSO zero | GFP/RFP ratio change, % at 20 µM | hit rate 0.061% among 360,000 | AID 651647;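 active = GFP/RFP ratio change of at least 30% with cell ATP level not reduced by more than half and red fluorescence within 50% of control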; note: strong numbers were not always called active
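Assay system – RFP-PRO-GFP reporter HT1080 cells · Compound dosing – single dose of 20 µM compound, 1% DMSO final · Incubation – overnight compound exposure at 37 °C · Measure – GFP/RFP fluorescence ratio · Benchmarks – DMSO wells and RFP-L50D-GFP cells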
Yeast UUG start: yeast start codon fidelity modulation. hit rate 0.13% among 350,000. AID 602363. activity score, % at 18.7 µM. S. cerevisiae UUG-firefly luciferase reporter, luminescence/redox ratio;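 active = replicate mean at a twofold rise or more, about +100% in these data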;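 note: firefly luciferase made from a UUG start codon reports start codon fidelity; reporter light over untreated wells divided by growth signal over untreated wells; some hits fall short of that in this replicate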
eIF4H inh retest: recorded beside eIF4H inh, whose call it bears; inhibition, %; compound at 20 µM; confirmation average;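 mean of two retest wells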
PABP polyA inh retest: further read-out of PABP polyA inh, marked with its call; inhibition, %; compound at 20 µM; confirmation repeats;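 mean of two retest wells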
MT1-MMP act inh RFP: also measured in MT1-MMP act inh; calls as there; RFP signal change, %; measured here: RFP expression control read;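 0 = vehicle wells; hits needed this value within 50% of zero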
Numbers without * were called inactive; i = inactive; ? = inconclusive; nt = not tested or not shown.

SMILES | Rce1 inhib | eIF4H inh | HIV Env fusion | PABP polyA inh | CSC inhib | MT1-MMP act inh | MT1-MMP act inh RFP | Yeast UUG start | others
Cc1[nH]c(C)c(S(=O)(=O)NCc2ccc(OC(C)C)cc2)c1C(=O)N1CCCC1 | i | -2.0 | 0.5 | 7.6 | 5.0 | 1.1 | 1.2 | -16.5
C=CCC(=O)NC1CC(C)(C)Cc2c1cnn2-c1ccccc1C (stereo unspecified) | i | -9.4 | 0.6 | 0.6 | 1.1 | -5.8 | -3.9 | -3.3
Cc1ccccc1NC(=O)CS(=O)(=O)c1cn(CC(=O)N2CCOCC2)c2ccccc12 | i | -9.0 | 12.5 | -1.7 | -5.6 | -1.1 | 8.0 | nt
COc1ccccc1NS(=O)(=O)c1cc(NC(=O)c2ccc(Cl)nc2)ccc1Cl | i | -2.4 | ? | -3.5 | 18.2 | 12.9 | -26.5 | -0.1
COc1ccc(CCNC(=O)CN2CCN(Cc3ccc(F)cc3)C2=O)cc1OC | i | -7.1 | 17.9 | 3.9 | -5.2 | 4.2 | -0.1 | -1.1
CCn1c(=O)c2c3c(sc2n2cnnc12)CCC3 | i | -2.6 | nt | -0.7 | 3.7 | 0.5 | 2.5 | nt
Cc1ccc(S(=O)(=O)NCC(=O)OCc2ccccc2Br)cc1 | i | -8.9 | -2.8 | -4.9 | -9.1 | 3.1 | 3.4 | nt
Cc1ccc(CCNC(=O)c2ccc(CS(=O)(=O)Cc3ccccc3F)o2)cc1 | i | -1.6 | nt | 5.1 | -0.3 | -6.6 | -1.7 | 10.0
Cc1ccccc1NS(=O)(=O)c1nnc(NC(=O)c2ccc(Cl)cc2)s1 | i | -15.2 | -11.8 | -12.4 | 20.5 | 4.6 | -1.3 | -14.0
Cc1noc(C)c1COc1ccccc1C(=O)NCc1ccccc1Cl | i | nt | 3.9 | nt | -3.6 | -3.2 | -0.8 | -20.9
O=C(NCC1CCCO1)c1ccc(NS(=O)(=O)c2ccccc2)cc1 (stereo unspecified) | i | -2.9 | -13.4 | 0.4 | 5.2 | 1.0 | 5.1 | nt
CC(=O)OC1CCC2(C)C(CCC3C2CC(=O)C2(C)C3CC(C3CCCC3=O)C2C(C)=O)C1 (stereo unspecified) | nt | nt | -3.1 | nt | nt | -1.1 | -0.7 | -11.0
CC(NC(=O)COC(=O)[C@@H]1CCCN1S(=O)(=O)c1ccccc1F)C12CC3CC(CC(C3)C1)C2 (stereo partly specified) | i | -2.2 | 0.0 | -6.2 | -7.9 | 2.0 | 1.8 | -8.0
N#Cc1cccc(NC(=O)CSc2ccc3c4c(cccc24)C(=O)c2ccccc2-3)c1 | i | 126.5 | -57.0 | 119.5 | -11.3 | -131.1 | 31.8 | -1.8 | eIF4H inh retest=-1.4;PABP polyA inh retest=6.6
CCN(CC)c1nc2cc(OC)ccc2cc1C#N | i | ? | -107.6 | 102.4* | -0.8 | -104.3 | -18.2 | -19.0 | PABP polyA inh retest=66.2*
Cc1ccc(-n2cnc(=O)c3cccnc32)cc1 | i | -5.3 | -44.6 | -3.8 | -8.0 | 1.5 | 1.8 | nt
CCOC(=O)c1c(NC(=S)Nc2ccccc2C)sc2c1CCC2 | nt | 10.8 | -6.4 | 1.2 | 4.4 | -5.5 | -0.5 | nt
CN(c1ccccc1)S(=O)(=O)c1cccc(NC(=O)CSc2nncn2C)c1 | i | 1.1 | 22.0 | 8.4 | 4.7 | -1.2 | 2.3 | -4.0
Cc1cccc(C)c1NC(=O)C1(NC(=O)C2CCC(=O)N2)CCCCC1 (stereo unspecified) | i | 7.8 | -1.9 | -5.1 | -11.9 | 3.7 | 8.5 | nt
Nc1ccc(-c2sc(N)nc2-c2ccccc2)cc1 | i | 5.3 | 9.3 | -10.4 | -5.4 | 3.5 | 3.5 | -20.9
C=CCOc1ccc2ccccc2c1CNn1cn[nH]c1=S | i | -9.0 | 8.1 | -4.0 | -21.7 | -1.1 | 3.6 | -17.0
Cc1ccc(CN2CCN(Cc3cnc(C)[nH]3)CC2CCO)cc1 (stereo unspecified) | i | 4.0 | 15.4 | -12.1 | -16.5 | 3.4 | 8.4 | 2.0
Cc1ccc(N(Cc2ccc(C(=O)Nc3c(C)n(C)n(-c4ccccc4)c3=O)cc2)S(C)(=O)=O)cc1C | i | -8.1 | 4.3 | -6.1 | 1.1 | 3.2 | -4.4 | nt
O=C(CC1NCCNC1=O)Nc1ccccc1 (stereo unspecified) | i | 2.7 | 0.4 | 0.3 | -10.2 | -1.8 | -1.4 | nt
COc1cc(OC)cc(C2=NC3(CCC(C)CC3)NC2=S)c1 (stereo unspecified) | i | -8.7 | 14.6 | -8.4 | 10.2 | -4.3 | -6.5 | -34.2

Random excerpt: five records from the list
SMILES | Rce1 inhib | eIF4H inh | HIV Env fusion | PABP polyA inh | CSC inhib | MT1-MMP act inh | MT1-MMP act inh RFP | Yeast UUG start | others
O=C(CC1NCCNC1=O)Nc1ccccc1 (stereo unspecified) | i | 2.7 | 0.4 | 0.3 | -10.2 | -1.8 | -1.4 | nt
O=C(NCC1CCCO1)c1ccc(NS(=O)(=O)c2ccccc2)cc1 (stereo unspecified) | i | -2.9 | -13.4 | 0.4 | 5.2 | 1.0 | 5.1 | nt
Cc1ccc(CN2CCN(Cc3cnc(C)[nH]3)CC2CCO)cc1 (stereo unspecified) | i | 4.0 | 15.4 | -12.1 | -16.5 | 3.4 | 8.4 | 2.0
COc1ccccc1NS(=O)(=O)c1cc(NC(=O)c2ccc(Cl)nc2)ccc1Cl | i | -2.4 | ? | -3.5 | 18.2 | 12.9 | -26.5 | -0.1
N#Cc1cccc(NC(=O)CSc2ccc3c4c(cccc24)C(=O)c2ccccc2-3)c1 | i | 126.5 | -57.0 | 119.5 | -11.3 | -131.1 | 31.8 | -1.8 | eIF4H inh retest=-1.4;PABP polyA inh retest=6.6

Next part.
SMILES | Rce1 inhib | eIF4H inh | HIV Env fusion | PABP polyA inh | CSC inhib | MT1-MMP act inh | MT1-MMP act inh RFP | Yeast UUG start | others
CCc1ccc(-n2c(=S)sc3c(=O)[nH]c(SCC(=O)NC4CCCCC4)nc32)cc1 | nt | nt | -2.3 | nt | nt | 17.0 | 1.3 | -16.0
CCc1nnc(NS(=O)(=O)c2ccc(NCc3ccccc3O)cc2)s1 | i | -5.4 | -12.8 | 0.5 | -2.0 | 2.8 | 4.9 | -3.1
CN(C)CCCOc1ccc(-c2cc3nc(NCc4cccnc4)n(C)c(=O)c3s2)cn1 | nt | nt | -5.5 | nt | nt | 4.8 | -4.8 | -18.6
O=C(NC1CCCCC1)N1CCc2ccccc21 | i | -6.5 | nt | 6.0 | -7.6 | -5.9 | -12.4 | -9.4
O=C1CN(C(=O)c2ccccc2)C(c2ccc(F)cc2)c2cc(Br)ccc2N1 (stereo unspecified) | i | -0.8 | 32.0 | -1.6 | -4.5 | -9.3 | -4.1 | -11.5
CCC(/C=C1\Oc2ccc(OC)cc2N1C)=C\c1sc2ccccc2[n+]1CCCS(=O)(=O)[O-] | nt | nt | -17.3 | nt | nt | 35.3* | 38.0* | 0.3
O=C(O)CN1C(=O)C2C3CC(C2C1=O)C1C(c2ccccc2)c2sc(=O)[nH]c2SC31 (stereo unspecified) | i | 2.6 | nt | -1.1 | -17.0 | -4.2 | 3.0 | 2.1
Nc1ccc(C(=O)N/N=C\C=C\c2cccc([N+](=O)[O-])c2)cc1 | i | 1.2 | -12.2 | -4.2 | -0.6 | 5.4 | 3.6 | nt
OCC[C@@H]1C[C@H](O)[C@@H](O)[C@]2(CCCO2)O1 | i | nt | 21.6 | nt | -13.3 | 0.0 | 1.8 | -26.3
O=C(CCCOc1ccc(Cl)cc1Cl)N1CCc2ccccc2C1 | i | -1.3 | nt | -14.8 | 26.3 | 5.8 | 1.9 | -4.6
Cc1ccnc2nc(C(=O)Nc3cc(Cl)ccc3N3CCOCC3)nn12 | i | -4.7 | nt | 1.9 | -9.6 | 11.7 | 0.4 | 8.8
COc1ccc(C2NC(=S)NC(C)=C2C(=O)Nc2ccccn2)cc1 (stereo unspecified) | i | 2.9 | -4.1 | -1.1 | nt | 0.2 | -0.7 | -12.6
